VACV mCherry inh = inhibitors of vaccinia virus infection (mCherry reporter signal); Vaccinia virus mCherry reporter infection, fluorescence; about a quarter of the inactives have no number; Potency, µM (series often up to 36.5 µM), without a hit: top-dose activity change, negative = inhibition, usual class: inhibitors; 310,000 compounds, 0.63% hits; AID 720579; active = well fitted inhibition curve with a large enough effect; inconclusive = small, poorly fitted or top-dose-only effect; inactive = no such curve, though single readings can be large or run the other way; tested in A549 cells; note: nearly all actives have a fitted effect of over 35% in size; inactives centre near -10
VACV Venus inh = vaccinia inhibition (Venus reporter); Vaccinia virus Venus reporter expression, fluorescence; Potency, µM (titrated, usually from 36.5 µM), for inactives: at the highest dose activity change, negative = inhibition, hits mostly inhibitors; 330,000 compounds, 0.46% hits; AID 720580; active means well fitted inhibition curve with a large enough effect; inconclusive means small, poorly fitted or top-dose-only effect; inactive means no such curve, though single readings can be large or run the other way; tested in A549 cells; note: nearly all actives have a fitted effect of over 30% in size; inactives centre near -10
Starred values were filed as active, the others as inactive; & = joins results of further samples; [ ] = another dose, or the depositor's remark. % is set by controls: 0 for no effect and ±100 for the full control effect; potency is the fitted concentration of half-maximal effect.

NS(=O)(=O)c1cccc(NC(=O)CSc2nc3ccccc3n2-c2ccccc2)c1 was read as VACV mCherry inh -9% and VACV Venus inh -24%.
Screening COc1ccc(CC(=O)OCC(=O)Nc2cccnc2Cl)cc1OC returned VACV mCherry inh -1% and VACV Venus inh -7%.
CCc1ccc(NC(=O)C2=CC(c3ccc(OC)cc3)=NS(=O)(=O)N2C)cc1 was read as VACV mCherry inh inactive and VACV Venus inh -26%.
CCC(Oc1ccc(C)cc1)C(=O)Nc1ccccc1C(=O)N1CCOCC1 (configuration not stated) was read as VACV mCherry inh -7% and VACV Venus inh -4%.
Screening Cc1cc(C)c[n+](-c2nc3ccccc3nc2[N-]S(=O)(=O)c2cccs2)c1 returned VACV mCherry inh inactive and VACV Venus inh -13%.
For O=C(COC(=O)/C=C/c1cccc(F)c1)Nc1ncccn1 the results were VACV mCherry inh inactive and VACV Venus inh -17%.
For Cc1ccccc1NC1=NCCCS1 the results were VACV mCherry inh inactive[1.46 µM] and VACV Venus inh -8%.
CCNc1nc(C)nc2c1oc1ccccc12 was read as VACV mCherry inh -1% and VACV Venus inh -10%.
O=C1CCCC(=O)C1C(c1ccc(Cl)cc1)C1C(=O)CCCC1=O was read as VACV mCherry inh inactive and VACV Venus inh -9%.
For CSc1sccc1/C=N/O the results were VACV mCherry inh -10% and VACV Venus inh -4%.
`Cc1ccc(NS(=O)(=O)c2ccc(Cl)c(C(=O)Nc3ccccc3-c3nc4ccccc4[nH]3)c2)cc1C` gave VACV mCherry inh inconclusive and VACV Venus inh 10µM*.
CCOC(=O)Cc1cnc(NC(=O)CSc2nc(C(C)C)cc(=O)[nH]2)s1 was read as VACV mCherry inh inactive and VACV Venus inh -9%.
Screening CN1CCN(S(=O)(=O)c2ccc(SCCOc3ccccc3)nc2)CC1 returned VACV mCherry inh -14% and VACV Venus inh -11%.
For COc1ccccc1NC(=O)c1c(NC(=O)c2ccco2)sc2c1CCC(C(C)(C)C)C2 (configuration not stated) the results were VACV mCherry inh 0% and VACV Venus inh -3%.
For O=c1c2c3c(sc2nc2n1CCCCC2)C(O)CCC3 (configuration not stated) the results were VACV mCherry inh inactive and VACV Venus inh -2%.
`Cc1cc(NC(=O)C2=C(O)c3ccccc3S(=O)(=O)N2C)no1` gave VACV mCherry inh -5%&-15% and VACV Venus inh -8%&-11%.
Screening CCNc1ccc2noc3c2c1C(=O)c1ccccc1-3 returned VACV mCherry inh -16% and VACV Venus inh 124%[activator].
CN(C)S(=O)(=O)N(CC(=O)NCCSCc1cccc(Cl)c1)c1ccccc1 was read as VACV mCherry inh -17% and VACV Venus inh 4%.
Screening CCOC(=O)C(NCCCCl)c1ccccc1 (configuration not stated) returned VACV Venus inh -13%.
Screening CC(C)(C)n1nnnc1C(c1ccc(Cl)cc1)N1CCCc2ccccc21 (configuration not stated) returned VACV mCherry inh -14% and VACV Venus inh -9%.
`Cc1c(NC(=O)C2CCCN2C(=O)c2cccs2)c(=O)n(-c2ccccc2)n1C` (configuration not stated) gave VACV mCherry inh inactive and VACV Venus inh -14%.
For Cc1ccc(C(=O)c2c3ccc(N)cc3nn2CCC(N)=O)cc1 the results were VACV mCherry inh inactive and VACV Venus inh -10%.
Cc1ccc(Cl)cc1N1CCN(C(=O)c2cn(C)c3ccc(S(=O)(=O)N4CCCC4)cc3c2=O)CC1 was read as VACV mCherry inh -12% and VACV Venus inh -21%.
For Cc1ccc(/C=C/c2nc3ccccc3n2S(=O)(=O)c2ccc(Br)cc2)cc1 the results were VACV mCherry inh -17% and VACV Venus inh -19%.
For CCCCCCCNC(=O)C1(CC2CC(c3ccccc3)=NO2)CCN(C(=O)c2ccccc2)CC1 (configuration not stated) the results were VACV mCherry inh inactive and VACV Venus inh inconclusive.
`Cc1ccc(N2CCN(S(=O)(=O)c3cc(Br)cc4c3N(C(=O)C3CC3)CC4)CC2C)cc1` (configuration not stated) gave VACV mCherry inh -1% and VACV Venus inh -2%.
For CCCCCn1c(=O)[nH]c2cc(C(=O)NCCN(C)CCCC)ccc2c1=O the results were VACV mCherry inh -10% and VACV Venus inh -3%.
`O=c1[nH]c2ccccc2nc1CCc1ccccc1` gave VACV mCherry inh -3% and VACV Venus inh -5%.
Screening COc1ccc(S(=O)(=O)N(C)c2ccc(C(=O)NCc3ccncc3)cc2)cc1 returned VACV mCherry inh inactive and VACV Venus inh -22%.
O=C(O)COCCN1CCN(C(c2ccccc2)c2ccc(Cl)cc2)CC1 (configuration not stated) was read as VACV mCherry inh -9% and VACV Venus inh -6%&-3%.

Reprinted from the entries so far for reference:
`Cc1cc(NC(=O)C2=C(O)c3ccccc3S(=O)(=O)N2C)no1` gave VACV mCherry inh -5%&-15% and VACV Venus inh -8%&-11%.
Screening CCNc1ccc2noc3c2c1C(=O)c1ccccc1-3 returned VACV mCherry inh -16% and VACV Venus inh 124%[activator].

Next section.
Screening COc1ccccc1NC(=O)C(=O)NCC(c1ccc2c(c1)OCO2)N1CCOCC1 (configuration not stated) returned VACV mCherry inh -11% and VACV Venus inh -13%.
CCOc1ccccc1CNC(=O)C1CCN(C(=O)N2CC(C)Oc3ccc(C)cc32)CC1 (configuration not stated) was read as VACV mCherry inh -25% and VACV Venus inh -19%.
`O=C(Cc1cc(=O)[nH]c(=O)[nH]1)NCCN1CCOCC1` gave VACV mCherry inh -1% and VACV Venus inh -20%.
`Cc1ccc(OC(=O)C(C)c2cccc(C(=O)c3ccccc3)c2)cc1` (configuration not stated) gave VACV mCherry inh -6% and VACV Venus inh 2%.
CCCN1CCc2c(sc3nc(SC)n(-c4ccccc4)c(=O)c23)C1 was read as VACV mCherry inh inactive and VACV Venus inh -12%.
CC(C)CN(C(=O)c1cccs1)C1CCS(=O)(=O)C1 (configuration not stated) was read as VACV mCherry inh -24% and VACV Venus inh -7%.
Screening CCN1CCN(Cc2c(O)ccc3c(=O)c(Oc4ccccc4Cl)c(C(F)(F)F)oc23)CC1 returned VACV mCherry inh -10% and VACV Venus inh -7%.
Cc1ccc(S(=O)(=O)c2cn(CC(=O)Nc3ccc4c(c3)OCO4)c3ccccc3c2=O)cc1C was read as VACV mCherry inh -16% and VACV Venus inh -12%.
`COc1ccc(C(=O)Nc2nc(N)n(-c3ccccc3)n2)cc1OC` gave VACV mCherry inh 1% and VACV Venus inh -7%.
For CCc1nc2c(OCc3ccccc3C(=O)OC)cccn2c1N(C)C(=O)c1cccs1 the results were VACV mCherry inh 26% and VACV Venus inh -4%.
CC(C)C(=O)Nc1ccc2nc(SCC(=O)N3CCc4ccccc43)sc2c1 was read as VACV mCherry inh -4% and VACV Venus inh -2%.
Screening Cc1nc2nc(-c3ccc(F)cc3)cn2nc1C returned VACV mCherry inh -14% and VACV Venus inh -8%.
Screening COc1cc(OC)cc(-c2nc3n(n2)C(c2ccccc2)C(C(N)=O)=C(C)N3)c1 (configuration not stated) returned VACV mCherry inh -12% and VACV Venus inh -7%.
`COc1ccc(Cn2nnnc2CN2CCC(O)(c3ccccc3F)CC2)cc1` gave VACV mCherry inh 1% and VACV Venus inh 6%.
`CCC1CCCCN1CC(O)Cn1c2ccccc2n2c(=O)cc(C)c(C#N)c12` (configuration not stated) gave VACV mCherry inh 2% and VACV Venus inh -11%.

Some of these compounds in order of length of the SMILES, lowest first.
`CCC1CCCCN1CC(O)Cn1c2ccccc2n2c(=O)cc(C)c(C#N)c12` (configuration not stated) gave VACV mCherry inh 2% and VACV Venus inh -11%.
Screening COc1ccccc1NC(=O)C(=O)NCC(c1ccc2c(c1)OCO2)N1CCOCC1 (configuration not stated) returned VACV mCherry inh -11% and VACV Venus inh -13%.
For CCc1nc2c(OCc3ccccc3C(=O)OC)cccn2c1N(C)C(=O)c1cccs1 the results were VACV mCherry inh 26% and VACV Venus inh -4%.

More results.
For COc1cc(NS(=O)(=O)c2ccc(-c3ccc(=O)[nH]n3)o2)cc(OC)c1OC the results were VACV mCherry inh inactive and VACV Venus inh -7%.
Screening O=C(c1cc2ccccc2oc1=O)N(Cc1cccs1)C1CCS(=O)(=O)C1 (configuration not stated) returned VACV Venus inh -15%.
`COc1ccc(Nc2c3c(nc4ccc(NC(=O)/C=C/c5cc(OC)c(OC)c(OC)c5)cc24)CCCC3)cc1OC` gave VACV mCherry inh -10%[7.34 µM] and VACV Venus inh -17%[7.34 µM].
CCc1ccc(CSc2nccn2-c2ccccc2)cc1 was read as VACV Venus inh inconclusive.
Cc1ccc2c(c1)[nH]c1c(=O)n(Cc3ccccn3)cnc12 was read as VACV Venus inh -23%.
For COc1ccccc1-n1c(=O)c2c3c(sc2n(Cc2ccccc2F)c1=O)CN(C(C)=O)CC3 the results were VACV mCherry inh -7% and VACV Venus inh 2%.
`COc1ccccc1CC1C(=O)C2CCN1CC2` (configuration not stated) gave VACV Venus inh -25%.
For COc1ccc(/C=N/NC(=O)CN(C)C(=O)OCc2ccccc2)cc1OC the results were VACV mCherry inh -17% and VACV Venus inh -13%.
Screening C/C(Nc1ccc(Cl)cc1)=C1/CCOC1=O returned VACV mCherry inh -14% and VACV Venus inh -13%.
`Cc1ccc(C)c(Cn2c(=O)cc(C)c3c(C)nn(-c4cccc(F)c4)c32)c1` gave VACV mCherry inh -10% and VACV Venus inh -13%.
For O=C(NCC(c1ccc(F)cc1)N1CCOCC1)c1ccc(C(=O)c2ccccc2)cc1 (configuration not stated) the results were VACV mCherry inh -4% and VACV Venus inh -19%.
`CCOc1ccc2nc(N3CCC(C(=O)NCCCN4CCOCC4)CC3)sc2c1` gave VACV mCherry inh -16% and VACV Venus inh -5%.
O=C(COc1ccccc1[N+](=O)[O-])Nc1cccc(Cl)c1N1CCOCC1 was read as VACV mCherry inh -23% and VACV Venus inh inconclusive.
Screening Cn1ccc(NC(=O)Nc2cccc(C(F)(F)F)c2)n1 returned VACV mCherry inh inactive and VACV Venus inh -23%.
CCOC(=O)c1c(S(=O)(=O)N2CCCC(C(=O)NCc3ccccc3OC)C2)c(C)n(C)c1C (configuration not stated) was read as VACV mCherry inh -12% and VACV Venus inh -7%.
Screening CCOc1ncccc1C(=O)N=C1SCCN1C(=O)c1cccnc1OCC returned VACV mCherry inh -4% and VACV Venus inh -3%.
`CCOC(=O)c1ccc(N2CN(C3CCCCC3)CNC2=S)cc1` gave VACV mCherry inh -2% and VACV Venus inh -10%.
For O=C(NCC(c1cccnc1)N1CCc2ccccc2C1)C(=O)Nc1ccc(F)cc1F (configuration not stated) the results were VACV mCherry inh -18% and VACV Venus inh -14%.
CC(C)(C)C(=O)/C=C/c1ccc(Oc2ccccc2)cc1 was read as VACV mCherry inh inactive and VACV Venus inh -11%.
Screening N=C1S/C(=C\c2ccco2)C(=O)N1c1nccs1 returned VACV mCherry inh inconclusive and VACV Venus inh -23%.
`O=C(Nc1cccc(C(F)(F)F)c1)C1CCCN(S(=O)(=O)c2cccc3nonc23)C1` (configuration not stated) gave VACV mCherry inh -14% and VACV Venus inh -14%.
Screening CC1CN(C(c2cccs2)c2sc3ncnn3c2O)CC(C)O1 (configuration not stated) returned VACV mCherry inh inactive and VACV Venus inh -8%.
Screening Cc1ccc(S(=O)(=O)C2(C(=O)N3CCN(c4ccccc4F)CC3)CC2)cc1 returned VACV mCherry inh inactive and VACV Venus inh -4%.
For COc1ccc(CNC(=O)CN(Cc2ccc(OC)cc2)C(=O)c2csnn2)cc1 the results were VACV mCherry inh -7% and VACV Venus inh -15%.
`CS(=O)(=O)Nc1nc2n(n1)C(c1ccc(F)cc1)CC(c1ccccc1)N2` (configuration not stated) gave VACV mCherry inh 1% and VACV Venus inh -4%.
`O=C(c1cc2nc(-c3ccccc3)cc(-c3ccccc3)n2n1)N1CCCC1` gave VACV mCherry inh -2% and VACV Venus inh -15%.
`O=C(c1ccc(Cn2cc(Br)cn2)cc1)N1N=C(C(F)F)CC1(O)C(F)F` (configuration not stated) gave VACV mCherry inh inactive and VACV Venus inh -7%.
`Cc1ccccc1OCC(=O)N/N=C/c1ccc(Sc2nc3ccccc3s2)o1` gave VACV mCherry inh inconclusive and VACV Venus inh -28%.
For O=C(COC(=O)c1ccc(S(=O)(=O)N2CCCCC2)cc1)NCc1ccccc1 the results were VACV mCherry inh -16% and VACV Venus inh -16%.
For Cc1noc(C)c1COC(=O)/C=C/c1ccccc1Cl the results were VACV mCherry inh inactive and VACV Venus inh 4%.
For CC(C)=CCC/C(C)=C/CNC(=O)C[C@H]1C[C@H](C(=O)N2CCCCC2)[C@@]2(C)c3[nH]c4ccc(Cl)cc4c3CCN2C1=O the results were VACV mCherry inh -16% and VACV Venus inh 0%.
For COC(=O)c1sc(NC(=O)c2ccc(C)o2)nc1C the results were VACV mCherry inh -15% and VACV Venus inh -26%.
For CCCCCCCCNC(=O)c1cnsn1 the results were VACV mCherry inh inactive and VACV Venus inh -9%.
`CNc1ccccc1C(=O)OC(C)C(=O)Nc1ccc(S(=O)(=O)N2CCCC2)cc1` (configuration not stated) gave VACV mCherry inh -24% and VACV Venus inh -23%.

Of the compounds above, three contain bromine:
For Cc1ccc(/C=C/c2nc3ccccc3n2S(=O)(=O)c2ccc(Br)cc2)cc1 the results were VACV mCherry inh -17% and VACV Venus inh -19%.
`Cc1ccc(N2CCN(S(=O)(=O)c3cc(Br)cc4c3N(C(=O)C3CC3)CC4)CC2C)cc1` (configuration not stated) gave VACV mCherry inh -1% and VACV Venus inh -2%.
`O=C(c1ccc(Cn2cc(Br)cn2)cc1)N1N=C(C(F)F)CC1(O)C(F)F` (configuration not stated) gave VACV mCherry inh inactive and VACV Venus inh -7%.
